MgrA-DNA mod – S. aureus MgrA activity modulators, primary screen, biochemical, S. aureus Newman, fluorescence polarization. MgrA-DNA binding. inhibition, %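 (about 10 µg/mL by stock and volumes)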. 84,000 compounds, 0.13% hits. AID 602314, 2012;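 active = above 50% in either of two replicates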;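 note: 0% = protein plus DNA without compound and 100% = DNA alone without protein; higher means less MgrA bound to DNA so lower polarization; one replicate is shown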
Sa helicase inh – inhibitors of S. aureus replicative helicase, primary screen, biochemical, fluorescence unwinding readout. replicative DNA helicase (DnaC/DnaB), Staphylococcus aureus. purified S. aureus helicase, fluorescence unwinding assay; about half of the hits fall short of the stated cut. inhibition, %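 (tested at about 80 µM)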. 120,000 compounds, 0.05% hits;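 active = both duplicates at 50% or more, or one of them with a favoured structure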;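 note: 0% = mean of negative control wells and 100% = mean of positive control wells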
* = called active by the depositor; / = not tested or not shown.

A first look (20 entries):
SMILES	MgrA-DNA mod	Sa helicase inh
Cc1nc(C2CC2)ncc1-c1nsc(Nc2ccccc2)n1	0.8	/
N#CCOc1ccc(C(F)(F)F)cn1	0.2	/
CCOC(=O)N1CCN(C(=S)NC(=O)c2cc(Br)ccc2Cl)CC1	/	11
O=C(c1ccco1)N(Cc1ccccc1)Cc1cn(-c2ccccc2)nc1-c1cccs1	8.3	9
CCN(CC)S(=O)(=O)c1ccc(NCCc2ccccn2)nc1	/	-1
COC(=O)c1cnc(Oc2ccc(N)cc2)cc1C(F)(F)F	-1.5	/
N#Cc1ccc(Cn2cc(Br)ccc2=O)cc1	/	-2
CSc1nnnn1-c1c(C)cc(C)cc1C	3.9	/
CN(C)S(=O)(=O)c1cccc(COC(=O)CN2CCCCCC2=O)c1	/	6
O=C(NCc1noc2ccccc12)Nc1nc2ccccc2s1	/	23
CCN(CC)C(=O)c1cnn(-c2ccccc2)c1NC(=O)c1ccco1	-1.1	1
COc1ccc(C(=O)CC2(O)C(=O)N(CN3CCOCC3)c3ccc(Br)cc32)cc1 (stereo unspecified)	-0.8	/
Clc1ccc(CSC2=NCCN2)cc1	-2.6	/
Cn1c(=O)cc(N)n(Cc2ccccc2)c1=O	/	6
CCn1cc(CCCC(=O)O)c2ccccc21	0.9	14
Cn1nc(OCC(=O)O)cc1C(F)(F)F	-4.7	/
CSc1nn(-c2ccccc2)cc1-c1nc(C(C)(C)C)cs1	/	-15
C=CCNc1nc(-c2cc3cc(Cl)ccc3o2)cs1	-0.1	/
Cc1n[nH]c(C)c1S(=O)(=O)Nc1ccc(Br)cc1F	/	-7
O=S(=O)(NN1CCOCC1)c1cccc2nonc12	/	18

This part in full, previewed entries included:
SMILES	MgrA-DNA mod	Sa helicase inh
Cc1nc(C2CC2)ncc1-c1nsc(Nc2ccccc2)n1	0.8	/
N#CCOc1ccc(C(F)(F)F)cn1	0.2	/
CCOC(=O)N1CCN(C(=S)NC(=O)c2cc(Br)ccc2Cl)CC1	/	11
O=C(c1ccco1)N(Cc1ccccc1)Cc1cn(-c2ccccc2)nc1-c1cccs1	8.3	9
CCN(CC)S(=O)(=O)c1ccc(NCCc2ccccn2)nc1	/	-1
COC(=O)c1cnc(Oc2ccc(N)cc2)cc1C(F)(F)F	-1.5	/
N#Cc1ccc(Cn2cc(Br)ccc2=O)cc1	/	-2
CSc1nnnn1-c1c(C)cc(C)cc1C	3.9	/
CN(C)S(=O)(=O)c1cccc(COC(=O)CN2CCCCCC2=O)c1	/	6
O=C(NCc1noc2ccccc12)Nc1nc2ccccc2s1	/	23
CCN(CC)C(=O)c1cnn(-c2ccccc2)c1NC(=O)c1ccco1	-1.1	1
COc1ccc(C(=O)CC2(O)C(=O)N(CN3CCOCC3)c3ccc(Br)cc32)cc1 (stereo unspecified)	-0.8	/
Clc1ccc(CSC2=NCCN2)cc1	-2.6	/
Cn1c(=O)cc(N)n(Cc2ccccc2)c1=O	/	6
CCn1cc(CCCC(=O)O)c2ccccc21	0.9	14
Cn1nc(OCC(=O)O)cc1C(F)(F)F	-4.7	/
CSc1nn(-c2ccccc2)cc1-c1nc(C(C)(C)C)cs1	/	-15
C=CCNc1nc(-c2cc3cc(Cl)ccc3o2)cs1	-0.1	/
Cc1n[nH]c(C)c1S(=O)(=O)Nc1ccc(Br)cc1F	/	-7
O=S(=O)(NN1CCOCC1)c1cccc2nonc12	/	18
O=C(/C=C/c1ccccc1Cl)Nn1cnc2ccccc2c1=O	0.7	8
Cc1ccc(C)c(NC(=O)c2cccc(S(=O)(=O)N3CCCC3)c2)c1	/	-14
Cc1cc(C(=O)NCCN2CCCCC2)no1	-1.5	/
Cc1cc(NC(=O)C(C)c2c(C)n[nH]c2C)no1 (stereo unspecified)	/	4
O=C(O)c1ccc2nc[nH]c2c1	/	1
Cn1ccnc1SCC(=O)Nc1nncs1	14	13
O=C(c1ccc(-c2ccccc2F)o1)N(CC1CCCO1)C1CCS(=O)(=O)C1 (stereo unspecified)	/	4
CC(O)c1cccc(Nc2ncnc3c2cnn3C)c1 (stereo unspecified)	/	7
CCCCn1c(CCNC(=O)c2ccc(Cl)cc2)nc2ccccc21	0.1	9
CCOC(=O)N1CCC(NC(=O)C(C)n2nc(C)c3sc4ccccc4c3c2=O)CC1 (stereo unspecified)	/	24
O=C1Cc2ccccc2C(c2ccc(Br)cc2)N1 (stereo unspecified)	-3.6	/
CCC(=O)Nc1ccc2c(c1)N(C(C)=O)c1ccccc1CC2	-0.3	-3
CC(C)=C1C2C=CC1C1C(=O)N(C(C)C)C(=O)C21 (stereo unspecified)	/	10
Cc1ccc(NC2=NCCC2)cc1	/	12
O=C(O)c1c2c(nc3ccccc13)C(=O)N(C1CCCCC1)C2	/	-17
Cc1cc(C(=O)NCC(=O)O)c(C)o1	-3.4	-9
Cc1cc(C)c(S(=O)(=O)N2CCCc3ccccc32)c(C)c1	2.5	11
CN(CCC#N)c1ccc(C=NCCCN=Cc2ccc(N(C)CCC#N)cc2)cc1	-1.6	/
CCOC(=O)CS(=O)(=O)c1ccc(C(F)(F)F)cn1	/	17
O=C(CCSCc1ccc(Cl)cc1)Nc1cccnc1	-8.1	-19
COC(=O)c1sccc1Oc1cc(C(F)(F)F)nc2c(C(=O)OC)scc12	-1.1	/
CCc1ccc(NC(=O)CSc2ccccn2)cc1	-1.0	3
COc1ccc(C)cc1NC(=O)Cc1cn(C)c2ccccc12	/	12
CCn1c2ccccc2c2cc(NS(=O)(=O)c3ccccc3)ccc21	0.4	11
Cc1nc2c(c(C)c1CCC(=O)NCCOc1cccc(C(F)(F)F)c1)c(=O)n(C)c(=O)n2C	/	-16
O=C(NC(NCc1ccco1)(C(F)(F)F)C(F)(F)F)c1cccnc1	/	-18
Clc1ccc(CNc2nc(Cl)nc(NCCN3CCOCC3)n2)cc1	/	-8
COc1cccc(C(=O)OCc2ccccc2C(F)(F)F)c1O	/	-4
CCc1nc2ccccc2n1C(=O)CCC(=O)O	0.1	-12
CN1C(=O)c2ccccc2C(C(=O)N2CCCCCC2)C1c1cccs1 (stereo unspecified)	/	31
More results follow.
SMILES	MgrA-DNA mod	Sa helicase inh
CCN(CC)C(=O)Cc1cccs1	-0.4	23
CC(Oc1ccc(F)cc1)C(=O)Nc1ccccc1Br (stereo unspecified)	/	0
CCOC(=O)CSC1=C(C#N)C(C)C2=C(CCCC2=O)N1 (stereo unspecified)	/	-7
O=C(COC(=O)CC1CCCC1)Nc1nnc(-c2ccccc2)o1	/	2
NC(=O)c1cc(-c2ccccc2)nc2ccccc12	/	-6
O=C(CSc1nnc(NC2CC2)s1)c1ccc2c(c1)OCO2	/	10
O=c1cc(-c2ccc(Cl)cc2)oc(=O)[nH]1	-0.4	/
CN1CCN(NC(=S)N=P(c2ccccc2)(N2CCOCC2)C(C)(C)C)CC1 (stereo unspecified)	/	11
CC1=NN(c2ccc(S(N)(=O)=O)cc2)C(=O)C1	0.8	9
O=C(Cc1ccccc1)NCCCl	-0.3	/
CS(=O)(=O)C1=NN2C(=N)/C(=C\c3ccc(-c4ccc(Cl)cc4)o3)C(=O)N=C2S1	/	-15
O=C(Nc1cccnc1)c1cccnc1C(=O)O	-5.5	0
Cc1c(C(=O)OCC(=O)Nc2ccc(SC(F)F)cc2)oc2ccc(Br)cc12	/	1
CC(=NCc1ccccn1)c1c(O)c2ccccc2n(-c2ccccc2)c1=O	1.4	9
CCn1c(SCC(=O)OCC(=O)N2c3ccccc3NC(=O)C2(C)C)nnc1-c1ccco1	/	-1
CCSc1ccc2c(c1)N(CCCN1CCN(C)CC1)c1ccccc1S2	0.4	/
CCOC(=O)c1[nH]c2c(c1C)C(=O)CCC2	/	12
O=C(N/N=C/c1c(Cl)cccc1Cl)c1cccnc1	0.5	/
COC(=O)c1ccc(NC(=O)CSc2nc3cc4c(cc3cc2C#N)OCCO4)cc1	0.3	15
O=C(Cn1cnc2ccccc2c1=O)OCc1ccccc1	3.9	12
Cc1nn(CCC(=O)NCc2ccccc2)c(=O)c2nn(-c3ccccc3)c(C)c12	/	-7
O=C(/C=C1/SC(=O)NC1=O)Nc1nccs1	/	-5
CNC(=O)C(C)n1c2ccccc2c2cn[nH]c(=O)c21 (stereo unspecified)	0.1	1
CC1=C(C(=O)OCC2CCCCC2)C(c2cccc(OCc3ccccc3)c2)NC(=O)N1 (stereo unspecified)	0.5	/
Cc1ccc(CN(CC(=O)O)Cc2cn(-c3ccccc3)nc2-c2cccs2)cc1	-0.2	-3
CC(C)c1ccc(NCc2nc(-c3ccc(Cl)cc3Cl)no2)cc1	0.6	6
O=C(COC(=O)c1ccc(Br)o1)Nc1cccc2ccccc12	-0.6	-23
Cc1cc(N/C=C(\C#N)C(=O)c2cccs2)no1	/	11
Nc1nc2ccccc2n1CCOc1ccc(Br)cc1	2.2	4
Cc1nc(N)[nH]c(=O)c1CCO	/	4

Reprinted from the part before: 2 entries, followed by the next part.
SMILES	MgrA-DNA mod	Sa helicase inh
Nc1nc2ccccc2n1CCOc1ccc(Br)cc1	2.2	4
Cc1nc(N)[nH]c(=O)c1CCO	/	4
COc1ccc(CNC(=O)C2CCN(S(=O)(=O)c3cnc[nH]3)CC2)cc1	1.4	2
CN(C(=O)c1cc2nc(-c3ccco3)cc(C(F)(F)F)n2n1)C1CCCCC1	0.0	3
O=C(NCC(c1ccco1)N1CCc2ccccc21)c1ccccc1 (stereo unspecified)	/	10
CC(C)(C)C(=O)OCC1OC(n2cnc(C(N)=O)n2)C(O)C1O (stereo unspecified)	1.5	11
O=S(=O)(c1ccc(-c2cc(C(F)(F)F)no2)s1)N1CCCc2ccccc21	/	-11
O=C(Cn1ncc2ccsc2c1=O)N1CCN(c2cccc(Cl)c2)CC1	/	14
CC(Nc1n[nH]c(=O)[nH]c1=O)C(=O)N/N=C/c1ccccc1 (stereo unspecified)	-2.5	7
N#Cc1c(-c2ccco2)cc(-c2ccccc2)nc1SCc1nc2ccccc2[nH]1	-0.2	3
COc1ccc(CCN2COc3ccc4c5c(oc4c3C2)C(=O)c2ccccc2C5=O)cc1OC	/	8
CN(Cc1ccccc1)C(=O)CSc1nc(NCc2ccc(Cl)cc2)c2ccccc2n1	1.0	1
OC(CSc1ccc(F)cc1)CN1CCN(c2ccc(C(F)(F)F)cn2)CC1 (stereo unspecified)	/	-23
Nc1nonc1C(=O)OCc1ccccc1Cl	/	-7
Cn1c(=O)c2nc(-c3ccccc3I)oc2c2ccccc21	1.8	4
C=CCOc1cccc(C(=O)NCc2ccccc2)c1	0.7	-12
O=C(O)c1ccccc1/C=C/c1cccs1	-3.9	/
CC(C)(C)C(=O)Nc1cccc(C(=O)O)c1	1.1	9
CCc1ccc(C(=O)COC(=O)c2cccc(-n3cccc3)c2)s1	/	-4
O=c1[nH]c2cc3c(cc2cc1CN(Cc1ccco1)S(=O)(=O)c1cccc(C(F)(F)F)c1)OCO3	1.1	6
CC1=CCC(COC(=O)Nc2ccccc2)CC1 (stereo unspecified)	1.0	12
CCOc1cc(C2C(C(=O)OCC3CCCO3)=C(C)NC3=C2C(=O)CCC3)cc(Br)c1O (stereo unspecified)	-0.9	/
CCc1ccccc1Nc1cc(C(=O)NCCN2CCCCCC2)c2ccccc2n1	0.0	15
CCn1c(=N)n(CC(O)COc2ccccc2)c2ccccc21 (stereo unspecified)	/	27
COc1cccc(/C=C2/Sc3ccc(C(=O)NCc4ccco4)cc3NC2=O)c1	/	1
C[C@@H](c1ccccc1)N1C(=O)CC[C@H]2CC(=O)CC[C@@H]21	/	-9
Cc1ccccc1C(=O)N1CCc2c([nH]c3ccccc23)C1C(F)(F)F (stereo unspecified)	-1.6	/
Cc1cc(N2CCN(C(=O)c3ccco3)CC2)c2ccccc2n1	-2.2	/
CN(C1CCCCC1)S(=O)(=O)c1ccc(C(=O)Nc2ccc3c(c2)C(=O)NC3=O)cc1	/	0
O=C(Nc1cc(=O)[nH]c(=O)[nH]1)C(c1ccccc1)c1ccccc1	/	5
CN1/C(=C\C(=O)c2cccnc2)C(C)(C)c2ccccc21	/	27
CCOC(=O)c1cncc(C#CCOC(=O)Nc2ccc(OC(F)(F)F)cc2)c1	-1.1	/
O=C1c2cccc3c(N4CCOCC4)ccc(c23)C(=O)N1CCOC(=O)C12CC3CC(CC(C3)C1)C2	0.1	/
O=C(ON=C1C2CC3CC(C2)CC1C3)c1cccc(C(F)(F)F)c1	-2.9	/
CCc1nnc(NC(=O)CSC2=NC(=O)C(NC(C)=O)C(=O)N2)s1 (stereo unspecified)	-0.1	7
CCCCNC(=O)Nc1ccc(C2SCCS2)cc1	/	-12
Nc1cccc2c(S(=O)(=O)NC3CCCCC3)cccc12	/	15
Cc1cc(C)c(C#N)c(=S)[nH]1	11	-3
Cc1ccc(C)c(NC(CC(=O)c2ccccc2)C(=O)O)c1 (stereo unspecified)	0.8	-3
Cc1ccc(C=Nc2c(F)cccc2F)o1	0.0	-25
CC(C)OC(=O)/C(C#N)=C/c1c[nH]c2ccccc12	/	0
COc1cc(C2C(C(=O)OCc3ccccc3)=C(C)NC3=C2C(=O)CC(c2ccccc2)C3)ccc1O (stereo unspecified)	0.7	/
O=C(c1cc2ccccc2s1)N1CCCN(c2ccc(C(F)(F)F)cn2)CC1	2.3	/
Cc1ccc(S(=O)(=O)NCCc2nnc(SCc3ccccc3)n2C)cc1	-1.9	4
COCc1cn2ccccc2n1	0.0	-1
COc1cc2[nH]c(=O)n(CCCC(=O)N3CCN(c4cc(Cl)ccc4C)CC3)c(=O)c2cc1OC	/	5
C=CCn1c(-c2ccc(Cl)cc2)cnc1SCc1c(C)noc1C	/	-13
O=C1c2ccccc2S(=O)(=O)N1CC(O)COc1ccc(Cl)cc1Cl (stereo unspecified)	/	-9
O=C(CSc1nnc(C2CCCCC2)o1)NN1C(=O)NC2(CCCCC2)C1=O	/	-11
CSc1ncc(C#N)c2nc(-c3ccc(Cl)cc3)nn12	2.6	/
CCN(C(=O)c1ccco1)c1nc(-c2ccccc2)cs1	/	-15

Only part of the results is shown; rates above refer to the full screens.
